VACV mCherry inh = qHTS for Stage-Specific Inhibitors of Vaccinia Orthopoxvirus: mCherry Reporter Primary qHTS; Vaccinia virus mCherry reporter infection, fluorescence; about a quarter of the inactives have no number; Potency, µM (titrated, usually from 36.5 µM), for inactives: at the top dose activity change, negative = inhibition, most hits filed as inhibitors; actives 0.63% (n = 310,000); active = well fitted inhibition curve with a large enough effect; inconclusive = small, poorly fitted or top-dose-only effect; inactive = no such curve, though single readings can be large or run the other way; tested in A549 cells; note: nearly all actives have a fitted effect of over 35% in size; inactives centre near -10
Vaccinia Venus = qHTS for Stage-Specific Inhibitors of Vaccinia Orthopoxvirus: Venus Reporter Primary qHTS | Potency, µM (doses to about 36.5 µM), without a hit: at the highest dose activity change, negative = inhibition, usual class: inhibitors | actives 0.46% (n = 330,000) | Vaccinia virus Venus reporter expression, fluorescence; active means well fitted inhibition curve with a large enough effect; inconclusive means small, poorly fitted or top-dose-only effect; inactive means no such curve, though single readings can be large or run the other way; tested in A549 cells; note: nearly all actives have a fitted effect of over 30% in size; inactives centre near -10
* marks the source's active call; other numbers are inactive results; i = inactive; ? = inconclusive; nt = no result given; [ ] = dose if it differs, or a comment. % is set by controls: 0 for no effect and ±100 for the full control effect; potency is the fitted concentration of half-maximal effect.

canonical_smiles,Vaccinia Venus,VACV mCherry inh
O=C(N1CCOCC1)N1CCN(C(=O)N(c2ccccc2)c2ccccc2)CC1,-12%,-4%
Cc1ccc(S(=O)(=O)Nc2ccc(S(=O)(=O)Nc3ncccn3)cc2)cc1,-5%,nt
CCc1cccc(CC)c1NC(=O)CSc1nnc(C2CC2)n1N,-9%,-11%
Cc1ccc(-c2cc(NC(=O)CSc3n[nH]c(N)n3)n(-c3ccccc3)n2)cc1,-21%,nt
Cc1cc(C)n2ncc(C(=O)NCCc3ccccc3)c2n1,-15%,-26%
CCOc1cccc(C(=O)Nc2nnc(S(=O)(=O)N(C)c3ccc(C)cc3)s2)c1,-11%,-16%
CS(=O)(=O)c1ccc(C(=O)Nc2cc(-c3ccccc3)nn2-c2ccccc2)cc1,-28%,-9%
Cc1cccc(-c2noc(-c3ccccc3OCC(=O)Nc3ccccc3[N+](=O)[O-])n2)c1,-18%,-3%
CC(=O)c1c(C)nc(C)nc1NC(=O)Cc1ccccc1,-2%,-9%
O=C(NC(=S)Nc1nc2ccc(F)cc2s1)c1ccco1,1%,-11%
CCCn1c(N)c(C(=O)CN(C)CC(=O)Nc2ccc(C)cc2)c(=O)[nH]c1=O,6%,-6%
O=C1c2oc3ccc(Cl)cc3c(=O)c2C(c2ccccn2)N1CCCN1CCOCC1 (configuration not stated),-5%,i
Cc1cnc(C)c(N2CCN(Cc3nc(-c4ccc(C)o4)oc3C)CC2)n1,-10%,-13%
O=C(COc1ccccc1Cl)N1CCN(c2ncccn2)CC1,-5%,-3%
COc1ccc(N2CC(NC(=O)Nc3ccccc3)CC2=O)cc1 (configuration not stated),-2%,-9%
CCOc1ccc(C(=O)NCCC(=O)N2CCC3(CC2)NCCc2[nH]cnc23)cc1,-13%,?
CSCCC(NC(=O)COc1ccccc1)C(=O)N1CCN(c2cccc(C(F)(F)F)c2)CC1 (configuration not stated),-22%,?
O=C(Nc1ccc(Cl)cc1F)c1ccc(COc2c(F)c(F)c(F)c(F)c2F)o1,-11%,nt
COC(=O)[C@@]12C[C@@H](CC(=O)NCCc3ccccc3OC)C(=O)N(Cc3ccco3)C1=CCC(C)(C)C2,-26%,-11%
COc1ccc(CNC(=O)CN(c2cc(C(F)(F)F)ccc2Cl)S(C)(=O)=O)cc1,13%,13%
CCNC(=O)C1CN(S(=O)(=O)c2ccccc2)CCN1S(=O)(=O)c1ccccc1 (configuration not stated),-8%,-7%
CN1CCN(C(CNC(=O)c2cccc(F)c2)c2ccc3c(c2)OCO3)CC1 (configuration not stated),-5%,-7%
C[C@H]1CN([C@@H](C)CO)C(=O)c2cccc(NS(=O)(=O)c3cn(C)cn3)c2O[C@H]1CN(C)S(C)(=O)=O,-6%,i
CSc1nc2sc3c(c2c(=O)n1C)CCCC3,-16%,-13%
COc1ccccc1NCCC(=O)OCC(=O)NC1CCCCCC1,4%,-9%
O=c1[nH]c(SCCOc2cccc3ccccc23)nc2ccccc12,-3%,-4%
Cc1cccc(NC(=O)CN2C(=O)C(c3ccccc3)=NC23CCC(C)CC3)c1 (configuration not stated),-13%,i
O=C1CCCN1CCNC(=S)Nc1ccccc1,2%,-13%
CC(C)CCN(CC(=O)NCc1ccc(F)cc1)S(=O)(=O)c1ccccc1F,-14%,0%
COc1cc(CNC(C)c2ccccc2)cc(Cl)c1OCC(=O)Nc1ccccc1 (configuration not stated),?,?
CCOC(=O)N1CCN(c2ccncc2S(=O)(=O)N2CCCCC2)CC1,-8%,i
Cc1cc(N2CCOCC2)ccc1/C=C1\NC(=O)N(CC(=O)Nc2ccccc2C)C1=O,-15%,-17%

Record cards, from the list above. Values in the order: Vaccinia Venus	VACV mCherry inh
Listed for COc1ccccc1NCCC(=O)OCC(=O)NC1CCCCCC1 → 4%	-9%
Listed for C[C@H]1CN([C@@H](C)CO)C(=O)c2cccc(NS(=O)(=O)c3cn(C)cn3)c2O[C@H]1CN(C)S(C)(=O)=O → -6%	i
Listed for Cc1cnc(C)c(N2CCN(Cc3nc(-c4ccc(C)o4)oc3C)CC2)n1 → -10%	-13%
Listed for Cc1ccc(S(=O)(=O)Nc2ccc(S(=O)(=O)Nc3ncccn3)cc2)cc1 → -5%	nt

Next section.
canonical_smiles,Vaccinia Venus,VACV mCherry inh
CC(C)Cn1c(N2CCN(C(=O)c3cccs3)CC2)nc2ccccc21,-4%,-3%
O=C(CSc1nncc2ccccc12)Nc1cccc(O)c1,-7%,i
CCc1ccc(-c2nc(CN3CCCC(C(=O)NCc4ccccc4Cl)C3)c(C)o2)cc1 (configuration not stated),-16%,-20%
CCCNC(=O)C1(C)CCCN(Cc2ccccc2F)C1 (configuration not stated),3%,-20%
CCOC(=O)c1c(C)[nH]c(C)c1S(=O)(=O)N(C)CC(=O)N1CCN(c2ccc(Cl)cc2)CC1,-14%,-22%
N=c1c2ccccc2nc2n1CCCCCCCCCCC2,-9%[7.34 µM],i[7.34 µM]
CCN(C(=O)CSc1nc(C2CC2)n(-c2ccccc2)n1)C1CCS(=O)(=O)C1 (configuration not stated),-11%,i
Cn1c(=O)c2c(ncn2CC(=O)Nc2ccccc2)n(C)c1=O,-7%,nt
COc1ccc(C(=O)N2CCCC2)cc1S(=O)(=O)N1CCC(C)CC1,-22%,-26%[1.46 µM]
Cc1cc(C)n(-c2nnc(NC34CC5CC(CC(C5)C3)C4)nn2)n1,-12%,-23%
COc1ccc(C(=O)CC(c2ccc3c(c2)OCO3)c2c(O)c3ccccc3oc2=O)cc1OC (configuration not stated),-4%,-14%
CCC(Oc1ccccc1F)C(=O)NCCCn1ccnc1 (configuration not stated),5%,-12%
C=CC[N+]1(CC=C)CCOCC1,-7%,i
CCCCC(=O)Oc1ccccc1C1SCc2cc(C)c(C)cc2CS1,20%,7%
O=C(Cn1nnc2ccccc21)c1ccc(Br)cc1,7%,i
CCOc1ccc(C2NC(=O)Cc3cc(OC)c(OC)cc32)cc1 (configuration not stated),-30%,i
CCCCC1=CC2=C(c3ccco3)C(=O)C(C)(OC(=O)c3ccc(OC)cc3)C(=O)C2=CN1CC1CC1 (configuration not stated),?,?
CCNc1ccc(Br)cc(C(=O)/C=C/c2ccc(Cl)cc2)c1=O,-21%,?
COc1ccc(OC)c(N2CC(O)(c3cccs3)[N+]3=C2SCCC3)c1 (configuration not stated),-15%,-14%
O=C(CCCCn1c(=O)c2ccccc2n(Cc2ccccc2F)c1=O)NCc1ccc2c(c1)OCO2,-6%,-12%
CN(C(=O)OC(C)(C)C)[C@H](Cc1ccccc1)C(=O)N[C@H]1CCCCNC1=O,-5%,-14%
Cc1nc(-c2ccc(S(=O)(=O)N3CCCN(CCc4ccccc4)CC3)s2)cs1,-17%,i
CCC(c1nc2ccccc2[nH]1)N(Cc1cccnc1)C(=O)c1cc(-c2ccccc2)on1 (configuration not stated),1%,3%
O=C(Nc1cccnc1Cl)c1ccc2c(Cl)c3c(nc2c1)CCC3,-19%,i
CN(C)S(=O)(=O)c1cccc(NC(=O)CSc2nc3c(cc2C#N)C(=O)CC(C)(C)C3)c1,?,?
CN1CCN(CCCNC(=O)c2ccc3nc(Cc4ccccc4)oc3c2)CC1,-6%,-9%
O=C(/C=C/c1nc2ccccc2s1)N1CCCCCC1,-6%,i
COc1ccc(-c2cc(NC(C)=O)c3ncc(-c4ccccc4)n3c2)c(OC)c1,-3%,i
COCC(=O)N[C@H]1C=C[C@@H](CC(=O)OC)O[C@@H]1CO,4%,-6%
Cc1ccccc1CCNC(=O)c1ccc2c(c1)nc1n2CCCCC1,-14%,-18%
NC(=O)c1ccc(Nc2ccc3c(c2)CCC3)c([N+](=O)[O-])c1,-16%,-24%
CCNC(=O)C1(C)CCCN(C(=O)c2ccnc(Cl)c2)C1 (configuration not stated),-12%,-10%
C=CCNCCOc1ccc(C(C)(C)c2ccccc2)cc1,-7%,i
CCCn1cc(S(=O)(=O)c2ccc(Cl)cc2)c(=O)c2cc(OC)ccc21,6%[7.34 µM],-9%[7.34 µM]
CCOc1cc(CNCc2cccnc2)cc(Br)c1OCC(N)=O,-6%,i
N=C(N)SCc1ccccn1,-4%,-18%
Clc1ccc(C[n+]2c(-c3ccccc3)cc(-c3ccccc3)cc2-c2ccccc2)cc1,?,-1%
CC(=O)c1cccc(NC(=O)Nc2cc3c(cc2N2CCCC2)n(C)c(=O)n3C)c1,-14%,i
Cc1ccc(S(=O)(=O)c2c(COC(=O)c3ccc(Cl)cc3)c(-c3ccccc3)nn2C)cc1,5%,nt
COc1ccc(S(=O)(=O)N(C)CC(=O)NCC2CCCO2)cc1OC (configuration not stated),3%,-13%
CC(C)(C)n1nnnc1C(c1ccccc1)N1CCN(c2c(Cl)cncc2Cl)CC1 (configuration not stated),-25%,-26%
O=Cc1ccnc(-c2ccc(OC(=O)c3ccco3)cc2)n1,-8%,-12%
Cc1ccc(NC(=S)NCc2ccc(Cl)cc2)c(OC(F)F)c1,-3%,-6%
O=C(COC(=O)CCCc1nc2ccccc2s1)NC(=O)NCc1ccco1,5%,-1%
CCC(=O)C1CCCN(C(=O)CCc2nnc(-c3ccc4c(c3)OCO4)o2)C1 (configuration not stated),-13%[7.34 µM],i[7.34 µM]
Cc1ccc(NC(=O)c2ccco2)nc1,0%,-7%
CN(CCc1ccccn1)C(=O)CCC1CCCN(C(=O)c2ccc3c(c2)OCCO3)C1 (configuration not stated),-13%,i
CCc1ccc(OCCOCC(O)CNC(C)(C)C)cc1 (configuration not stated),-10%,-14%
CCOC(=O)C(=O)NNc1ccccc1OC,-9%,-13%
N#Cc1ccc(S(=O)(=O)N2CCCCC2c2cc(C(=O)NCc3ccccc3)no2)cc1 (configuration not stated),-7%,35%[activator]
COc1cc(=O)n2c(c1C(=O)NC(C)c1ccco1)CCN(Cc1cc(C)ccc1C)CC2 (configuration not stated),8%,-8%
Cc1ccc(CSCCNC(=O)CN(c2cccc([N+](=O)[O-])c2)S(C)(=O)=O)cc1,-29%,-21%
CC1CCCCN1C(=O)c1ccccc1NC(=O)c1ccco1 (configuration not stated),3%,-6%
Cc1nc2ccccc2c(=O)n1NC(=O)c1ccccc1Br,-9%,-10%
O=C(COc1coc(CN2CCN(c3ccccc3F)CC2)cc1=O)NC1CCCC1,-11%,-17%
CCCn1c(SCC(=O)c2cc(C)n(C3CC3)c2C)n[nH]c1=O,-9%,i

Next section
canonical_smiles,Vaccinia Venus,VACV mCherry inh
Cc1ccc(S(=O)(=O)N2CCC[C@H]2C(=O)NC2CCCCC2)cc1,-4%,-14%
CCc1nc2ccc(C(=O)Nc3cc(-c4ccccc4)ccc3OC)cn2c1N(CC)Cc1cccc(Br)c1,-11%,-4%
CN1CCN(CC(O)COc2ccc(C(=O)O)cc2)CC1 (configuration not stated),-8%,i
CC1(C(=O)O)Oc2cccnc2NC1=O (configuration not stated),-5%,i
CC(=O)[C@@H]1[C@@H](C)N(Cc2ccccc2)C(=O)N[C@H]1c1cccc(C(F)(F)F)c1,-21%,0%
CN(Cc1cccs1)C(=O)Cc1c[nH]c2ccccc12,-22%,-1%
Cc1cccc(OCCNC(=O)c2cc(C3CC3)nc3c2cnn3C(C)C)c1,-8%,i
C/C=C(\C)c1nnc(NC(=O)c2ccco2)s1,-6%,-10%
Cc1cccc(NC(=S)N(CCN(C)C)Cc2cc3cc(C)ccc3[nH]c2=O)c1,-12%,-23%
Cc1ccc(-c2noc(-c3cc(-c4ccc(F)cc4)n[nH]3)n2)cc1,-11%,-1%
O=C(O)CCC(=O)NN1C(=O)c2ccccc2NC1c1ccco1 (configuration not stated),-3%,-9%
CCOc1ccccc1CNC(=O)Cn1nc(C)c2nn(-c3ccc(Cl)cc3)c(C)c2c1=O,-17%,-18%
O=C(CSc1ccc2nnc(-c3ccccn3)n2n1)Nc1ccccc1C(F)(F)F,-19%,?
Cc1ccc2[nH]c3c(=O)n(CC(=O)N(C)c4cc(Cl)ccc4C)ncc3c2c1,-24%,?
CC1=C(C(=O)Nc2cccnc2)C(c2ccc(C(C)C)cc2)n2ncnc2N1 (configuration not stated),-8%,i
OC(c1cccc(Cl)c1)c1ncc(-c2ccc(C(F)(F)F)cc2)[nH]1 (configuration not stated),-17%,-3%

Ordered by length of the SMILES (highest first): part of the list above
canonical_smiles,Vaccinia Venus,VACV mCherry inh
COC(=O)[C@@]12C[C@@H](CC(=O)NCCc3ccccc3OC)C(=O)N(Cc3ccco3)C1=CCC(C)(C)C2,-26%,-11%
CCOC(=O)c1c(C)[nH]c(C)c1S(=O)(=O)N(C)CC(=O)N1CCN(c2ccc(Cl)cc2)CC1,-14%,-22%
C/C=C(\C)c1nnc(NC(=O)c2ccco2)s1,-6%,-10%

(more compounds)
canonical_smiles,Vaccinia Venus,VACV mCherry inh
C#CCn1c(C)cc(C)c(S(=O)(=O)c2ccccc2)c1=O,-9%,-4%
CCN(CC)CCN=C(C)c1c(O)n(-c2ccccc2OC)c(=O)[nH]c1=O,-12%,-14%[1.46 µM]
CC(=O)Nc1ccc(NC(=O)CN(c2ccccc2Cl)S(C)(=O)=O)cc1,-7%,-12%
COc1ccc2nc(NC(=S)N(C)C)sc2c1,-26%,?
CC(C)c1ccc(NC(=O)CN(C)C2=NS(=O)(=O)c3ccccc32)cc1,-17%,i
